Assay outcomes (PubChem)
Mtb H37Rv: Mycobacterium tuberculosis H37Rv growth inhibition, cell based, confirmatory dose response (AID 1949); most inactive calls were filed without a number and no value below 0 was filed; inhibition, % at 10 µg/mL, or IC50 in µg/mL where a hit was titrated; actives 1.6% (n = 100,000); M. tuberculosis H37Rv growth inhibition;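 active = confirmed in a dose series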;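 also: bacteria grown 7 days with compound before Alamar blue readout; 0% = untreated bacteria and 100% = reference antibiotic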
Starred values were filed as active, the others as inactive; i = inactive. Not all compounds are listed; rates above refer to the full screens.

The first seven records, ahead of the listing:
smiles	Mtb H37Rv
O=C1Nc2ccc(S(=O)(=O)Nc3ccc(Oc4ccccc4)cc3)c3cccc1c23	16%
O=C(NCCN1CCOCC1)Nc1ccc(Cl)cc1Cl	i
CCc1ccccc1N(CC(=O)Nc1cc(C(=O)OC)ccc1Cl)S(C)(=O)=O	i
C=COCCNC(=O)Nc1ccc(Cl)cc1Cl	0%
CCC(=O)N1N=C(c2cccs2)CC1c1ccc(Br)cc1 (stereo not given)	i
Cc1ccc2ncnc(Nc3cccc(C(=O)O)c3)c2c1	i
Cc1cccc(CN2CCN(c3cccc(C(F)(F)F)c3)CC2)c1	i

Results (from the top)
smiles	Mtb H37Rv
O=C1Nc2ccc(S(=O)(=O)Nc3ccc(Oc4ccccc4)cc3)c3cccc1c23	16%
O=C(NCCN1CCOCC1)Nc1ccc(Cl)cc1Cl	i
CCc1ccccc1N(CC(=O)Nc1cc(C(=O)OC)ccc1Cl)S(C)(=O)=O	i
C=COCCNC(=O)Nc1ccc(Cl)cc1Cl	0%
CCC(=O)N1N=C(c2cccs2)CC1c1ccc(Br)cc1 (stereo not given)	i
Cc1ccc2ncnc(Nc3cccc(C(=O)O)c3)c2c1	i
Cc1cccc(CN2CCN(c3cccc(C(F)(F)F)c3)CC2)c1	i
Cc1cc(C(=O)Nc2nc(C)c(C(=O)N(C)C)s2)ccc1[N+](=O)[O-]	i
COc1ccccc1-c1nc(S(=O)(=O)c2ccccc2)c(N2CCOCC2)o1	i
O=C(Nc1ccc(I)cc1C(=O)Nc1ccccn1)c1ccccc1Cl	35%
CC(=O)c1ccc(NS(=O)(=O)c2cccc3cccnc23)cc1	i
S=C(NCCN1CCCCC1)Nc1ccc2c(c1)OCO2	i
Cc1ccc(S(=O)(=O)c2nc(C)oc2N2CCOCC2)cc1	5%
O=C1CC(c2ccco2)Cc2nc(NC3CCCC3)ncc21 (stereo not given)	1%
COC(=O)C1=CN(CCc2ccc(F)cc2)C=C(C(=O)OC)C1c1ccc(Br)cc1	i
CC(=O)C1=C(c2ccccc2)NC(=O)NC1c1ccccc1 (stereo not given)	i
CCn1c(SCC(=O)Nc2ccccc2C(=O)OC)nnc1-c1cccc(Cl)c1	i
CCC(C)NC(=O)c1ccccc1NC(=O)CN(c1ccc(C)cc1)S(C)(=O)=O (stereo not given)	i
COc1ccc(C(C)(C)C)cc1NC(=S)Nc1cccc([N+](=O)[O-])c1	24%
Cc1ccc(C(=O)NCCCN2CCOCC2)c(C)c1	i
CC1CCCCC1NC(=O)CSc1ccc(Br)cc1 (stereo not given)	0%
CCc1cccc(CC)c1NC(=O)c1cccc(NC(=O)c2ccccc2)c1	2%
C=CCNC(=S)NNC(=O)c1csc(C)c1C	i
CCCOc1ccc(/C(O)=C2\C(=O)C(=O)N(c3nc(C)c(C(=O)OC)s3)C2c2ccccc2)cc1 (stereo not given)	i
Cc1ccc(C(=O)C(=O)c2ccc(C)o2)o1	i
COc1ccc(Cl)cc1NC(=O)CN(c1ccc(I)cc1)S(C)(=O)=O	i
CC1CCc2c(sc(NC(=O)c3ccc(-c4ccc(Br)cc4)o3)c2C#N)C1 (stereo not given)	i
Cc1cc(N2C(=O)C(O)=C(C(=O)c3ccco3)C2c2ccc([N+](=O)[O-])cc2)no1 (stereo not given)	i
Nn1c(N2CCOCC2)nc2ccccc21	i
C=CCOc1c(Br)cc(CNCCO)cc1OC	i
O=C1C(=O)N(Cc2ccccc2Cl)c2ccc(Br)cc21	3.8µg/mL*
Cc1cc(C)c(C)c(S(=O)(=O)NCc2cccnc2)c1C	i
S=c1[nH]nc(C2COc3ccccc3O2)o1 (stereo not given)	2%
Cc1ccc(NC(=S)NCc2ccc(S(N)(=O)=O)cc2)c(C)c1	2%
Cc1ccc(N(CC(=O)Nc2c(C)cccc2C)S(=O)(=O)c2ccc(Cl)cc2)cc1C	i
Cc1nc2nc(NCc3ccc(OCc4ccccc4)cc3)[nH]n2c(=O)c1Cc1ccccc1	1%
CC1(C)Cc2c(ccc3ccccc23)C(c2cc3ccccc3oc2=O)=N1	1%
COc1ccc(Cl)cc1-c1nc(-c2ccccn2)no1	2%
O=C(Oc1ccc(-c2ccccc2)cc1)C1CC(=O)N(c2ccc(F)cc2)C1 (stereo not given)	i
CC12C(=O)N(c3nccs3)C(=O)C1C1C=CC2C1 (stereo not given)	i
O=C(Nc1ccc(N2CCOCC2)cc1)c1cncc(Br)c1	i
COc1ccc(OC)c(S(=O)(=O)NNC(=S)Nc2cccc(Cl)c2Cl)c1	i
N#Cc1c(NC(=O)CC23CC4CC(CC(C4)C2)C3)sc2c1CCC2	i
CCOc1ccc(N2C(=O)C3C4c5ccccc5C(C(C)O)(c5ccccc54)C3C2=O)cc1 (stereo not given)	19%
CN(CC(=O)Nc1cc(C(F)(F)F)ccc1Cl)S(=O)(=O)c1ccc(Cl)cc1	i
CCn1ncc(Br)c1C(=O)Nc1cc(C(F)(F)F)ccc1Cl	i
CC1CCCCN1C(=O)c1ccc(NC(=O)c2ccccc2Cl)cc1 (stereo not given)	i
O=C(CN(Cc1ccc(F)cc1)S(=O)(=O)c1ccc(Cl)cc1)Nc1ccccc1F	25%
Cc1cccc(OCc2nc3ccccc3c(=O)n2N)c1	1%
CSc1nsc(SCC(=O)N2CCN(c3ccccc3)CC2)n1	0.35µg/mL*
CC(c1ccccc1)N1C(=O)c2cccnc2C1=O (stereo not given)	i
O=C(CSc1nnc(COc2ccccc2)o1)N1c2ccccc2Sc2ccccc21	1%
CCn1c(SCC(=O)NC23CC4CC(CC(C4)C2)C3)nnc1-c1cccc(Br)c1	i
Nc1cccc(Oc2ccc3c(c2)C(=O)N(CCO)C3=O)c1	i
C=C(C)CSc1nc2sc3c(c2c(=O)n1-c1ccccc1OC)CCC3	i
CCc1ccc(NC(=O)CCSc2ccc(C)cc2)cc1	21%
Cc1cc(C)nc(SCC(=O)Nc2ncc(Cc3cccc(Cl)c3Cl)s2)n1	i
CC12CCC(C(=O)NCCc3ccccc3)(c3nc4ccccc4nc31)C2(C)C (stereo not given)	8%
Cc1cc(Br)ccc1OCC(=O)NC1CC(C)(C)NC(C)(C)C1	i
CC(C)(C)c1ccc(S(=O)(=O)Nc2ccc(C(=O)N3CCCC3)cc2)cc1	i

The listing continues:
smiles	Mtb H37Rv
COc1cc(C(=O)Nc2ccc(S(=O)(=O)Nc3ccc(C)cc3C)cc2)cc(OC)c1OC	i
CC(C)c1cccc(C(C)C)c1NC(=O)c1ccc(OCC(=O)NC2CCCCC2)cc1	i
Cc1cc(C)c(S(=O)(=O)N(C)CC(=O)Nc2cccc([N+](=O)[O-])c2)c(C)c1	i
Cc1cccc(OCc2nc(C#N)c(NCc3ccccc3)o2)c1	0%
COCCCNC(=O)c1c(NC(=O)COc2ccc([N+](=O)[O-])cc2)sc2c1CCCC2	0%
Cc1cccc(N2CCN(C(=S)NCCc3ccccc3)CC2)c1C	2%
CCCC(=O)c1c(O)c2ccccc2oc1=O	12%
CCOC(=O)CCSc1nc2c(c(C(F)(F)F)c1C#N)CCC2	27%
CCOc1ccc(Br)cc1C(=O)Nc1ccc2c(c1)OCCO2	i
COc1ccccc1NC1=C(Cl)C(=O)N(Cc2ccccc2)C1=O	1%
CCOc1ccc(NC(=O)Nc2ccc(Oc3ccccc3)cc2)cc1	i
CCSc1nnc(NC(=O)c2ccccc2-c2ccccc2C(=O)O)s1	2%
COc1cc(NC(=S)NCCc2ccc(F)cc2)c(OC)cc1Cl	11%
COc1cc(C(=O)NC(=S)N(C)Cc2ccccc2)cc(OC)c1OC	i
Cc1ccc(NS(=O)(=O)c2ccc(NC(=O)c3sc4ccccc4c3Cl)cc2)c(C)c1	3%
O=C(O)CCc1ccc(-c2ccc(Cl)cc2)o1	9%
COc1c(Cl)cccc1NC(=O)c1cccc([N+](=O)[O-])c1	i
COc1ccc(NC(=O)c2ccc(COCC(F)(F)C(F)F)cc2)cc1	i
CC1(C)CC(=O)C2=C(C1)Nc1ccccc1NC2c1ccc(Br)s1 (stereo not given)	i
Cc1ccc(C(C)C)cc1OCCOCCN1CCC(C)CC1	i
COc1ccc(C(C)(C)C)cc1NC(=O)c1cc(C)on1	i
C=CCn1c(CNC(=O)c2ccc(OC)cc2)nnc1SCC(=O)Nc1cccc(SC)c1	i
Cc1occc1C(=O)N(CC(C)C)CC(C)C	i
O=[N+]([O-])c1ccc(N2CCCCCC2)c(S(=O)(=O)N2CCCCC2)c1	6%
CCOC(=O)c1cnn2c(C(F)F)cc(C3CC3)nc12	i
Cc1cc(C(F)F)n2nc(C(=O)Nc3cnn(Cc4ccc(Cl)cc4Cl)c3)nc2n1	2%
CCOc1ccc(C(=O)NCc2ccccc2Cl)cc1OCC	i
CN(C)N1C(N)=C(C#N)C(c2ccc(Br)cc2)C2=C1CC(c1ccccc1)CC2=O (stereo not given)	i
Cc1ccccc1/C=C/c1ccc2cccc(O)c2n1	<0.1µg/mL*
COc1ccc(N(CC(=O)Nc2c(C)cc(C)cc2C)S(C)(=O)=O)cc1Cl	i

Part of the list above in order of count of non-hydrogen atoms, smallest number first.
smiles	Mtb H37Rv
COc1c(Cl)cccc1NC(=O)c1cccc([N+](=O)[O-])c1	i
COc1ccc(N(CC(=O)Nc2c(C)cc(C)cc2C)S(C)(=O)=O)cc1Cl	i
C=CCn1c(CNC(=O)c2ccc(OC)cc2)nnc1SCC(=O)Nc1cccc(SC)c1	i

Other entries
smiles	Mtb H37Rv
O=C(NCc1ccncc1)C(=O)Nc1ccc(Br)cc1F	i
CSc1cccc(NC(=S)NC(=O)CCc2ccccc2)c1	17%
CCc1ccccc1NC(=O)C(=O)NCc1cccc(OC)c1	i
Cn1c2c(c(=O)n(C)c1=O)CN(Cc1ccc3c(c1)OCO3)CN2	1%
Cc1nn(-c2ccccc2)c(C)c1/C=C(\C#N)S(=O)(=O)c1ccccc1	i
Cc1ccc(CN2CCC(C(=O)N3CCN(c4ccccc4F)CC3)CC2)cc1	i
CCc1sc(C(=O)NCc2cc(C)n(C)n2)cc1Br	i
CC(CC(=O)O)CC(=O)Nc1ccc([N+](=O)[O-])cc1 (stereo not given)	i
CCC(=O)Nc1ccc(-c2nc3ccccc3s2)cc1	9%
Cc1cc(C)c(S(=O)(=O)N2CCOCC2)c(C)c1N(C)S(=O)(=O)c1ccccc1	i
CCC(=O)Nc1ccc(C(=O)Nc2ccccc2C(=O)Nc2nccs2)cc1	i
Cc1ccnc(NS(=O)(=O)c2ccc(C3CCCCC3)cc2)c1	i
Cc1cccc(C)c1OC(=O)C(C)N1C(=O)C2C3C=CC(C4CC34)C2C1=O (stereo not given)	i
COc1ccc(C(=O)Nc2ccc(N3CCN(C(=O)c4ccco4)CC3)cc2)cc1Br	i
COc1ccc(-c2nc(C#N)c(NCc3ccco3)o2)cc1	i
CCCOc1cccc(C(=O)NC(=S)Nc2ccc(NC(=O)c3ccccc3)cc2)c1	i
CCOC(=O)c1ccc(NC(=O)CN(c2cccc(C(F)(F)F)c2)S(C)(=O)=O)cc1	0%
CC1(CNC(=O)COc2ccc3ccccc3c2)C2CC3CC(C2)CC1C3 (stereo not given)	i
O=C(CCN1CCN(c2ccccc2F)CC1)Nc1ccccc1Cl	i
O=C(C1CCN(S(=O)(=O)c2ccccc2)CC1)N1CCOCC1	i
CCC(Oc1ccccc1)C(=O)O/N=C(\N)Cc1ccc(Cl)cc1Cl (stereo not given)	5%
O=C(Cc1ccccc1)Nc1cc(C(=O)c2ccccc2)ccc1N1CCOCC1	i
Cc1ccc(OCc2ccccc2C(=O)N2CCN(c3ccccc3)CC2)cc1	i
O=S(=O)(c1ccc(I)cc1)N1CCN(c2cc(Cl)ccc2Cl)CC1	i
COCCNC(=O)Nc1ccc(C(C)=O)cc1	i
C=CCn1c(Cc2ccccc2)nnc1SCC(=O)Nc1ccc(OCC)cc1	7%
COc1cc(OC)c2c(C)c(Cc3ccccc3)c(=O)oc2c1	i
Cc1cccc(NC(=O)C23CCC(C)(C(=O)C2)C3(C)C)n1 (stereo not given)	i
COC(=O)c1ccc(NS(=O)(=O)c2ccc3c(c2)C(Cl)(Cl)C(=O)N3)cc1	i
CCOC(=O)N1CCN(C(=O)COc2cccc(C)c2C)CC1	i
CC1(C)CC2CC(C)(CN2S(=O)(=O)c2cccc([N+](=O)[O-])c2)C1 (stereo not given)	i
c1ccc(Cc2nc(-c3ccccc3)no2)cc1	i
O=C(COc1ccc(Cl)cc1Cl)Nc1ccc2oc(-c3cccnc3)nc2c1	1%
COc1cc(CN2CCN(Cc3ccccc3F)CC2)cc(OC)c1O	i
CN(C)c1ccc(Cc2c(NC=O)ccc3ccccc23)cc1	i
CCCC1Cc2c(sc(NC(=O)C(Cl)(Cl)Cl)c2C#N)CO1 (stereo not given)	3%
CCn1c(SCC(=O)Nc2cc(Cl)ccc2Cl)nnc1-c1ccccc1	i
Cc1ccc(-c2csc(NC(=O)c3ccc(Br)cc3)n2)c(C)c1	1%
CC(Oc1ccc(Cl)cc1Cl)C(=O)NCCNC(=O)C(C)Oc1ccc(Cl)cc1Cl (stereo not given)	i
O=S(=O)(Nc1ccc2oc3c(c2c1)CCCC3)c1cccs1	i
O=C(Nc1cccc(F)c1)c1ccc(-n2cccn2)cc1	i
Nc1nnc(SCC(=O)Nc2nc(-c3ccccc3)cs2)s1	i
Cc1cc(O)c2c(-c3ccccc3)cc(=O)oc2c1	2%
CNC(=O)Nc1ccc(Br)cc1	1%
Cc1cc(C)c(NC(=O)CSCc2cccc(Cl)c2)c(C)c1	i
O=C(CSc1ccc(Cl)cc1)Nc1ccccc1N1CCN(C(=O)c2ccccc2)CC1	i
COc1ccc(C(=O)NC(=S)Nc2ccc(S(=O)(=O)N3CCCCCC3)cc2)cc1Br	1%
